Ba CapD inh: Bacillus anthracis CapD inhibitors, primary screen, biochemical, fluorescence intensity. purified CapD enzyme, fluorescence intensity read-out; hits give low values; some hits fall short of the stated cut. z-score (concentration not given with the values). hit rate 0.23% among 140,000;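 active = z-score under -4 in either of two replicates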;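 note: stock transfer was 100 nL into about 40 µL; score is relative to mean and spread of the plate; one replicate is shown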
AID504770: growth inhibition of E. coli YBA685, primary screen, V. cholerae RctB inhibitors. E. coli YBA685 rctB-dependent plasmid, OD600 growth, 3 h; hits give low values. z-score (concentration not given with the values). hit rate 0.27% among 130,000;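 active = z-score under -2 on both plates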;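 note: wells of about 30 µL received 100 nL stock; score is relative to mean and SD of the test wells; the first replicate is given; strong numbers were not always called active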
Starred values were filed as active, the others as inactive; . = no result given. Only part of the results is shown; count on the stated rates, not on these rows.

SMILES	Ba CapD inh	AID504770
Cc1cc2c(c(=O)n1CCCn1ccnc1)C(c1ccccc1)C(C#N)=C(N)O2 (configuration not stated)	-0.615	-0.1
Cn1c(SCC(=O)c2ccc(Cl)cc2)nnc1SCC(=O)c1ccc(Cl)cc1	0.15	.
CC(NCc1cccs1)C12CC3CC(CC(C3)C1)C2 (configuration not stated)	0.055	1.7
COc1ccc(C)cc1NCC(=O)Nc1ccc2c(c1)OCO2	.	0.65
COC(=O)c1ccc(C=C(C#N)C#N)n1-c1ccc(F)cc1	-0.165	-1.1
Cn1ccnc1C(=O)c1ccc(Cl)c(S(=O)(=O)N2CCCCCC2)c1	.	0
O=C1CCCN1CN1CCCCC1	-2.45	-1.05
Cc1nc(N)[nH]c(=O)c1Oc1ccccc1	1.02	-1.5
Cc1cc(C)c2nc3s/c(=C/c4ccc(Br)c([N+](=O)[O-])c4)c(=O)n3c2c1	0.22	.
Cc1cc(-c2c(C(=O)Sc3ccccc3)c(C)nn2-c2cccc(C(F)(F)F)c2)no1	0.645	-0.45
O=Nc1[nH]c(O)c2cc(Br)ccc12	.	-1
Cc1nn(C)c2nc(-c3cccs3)cc(C(F)(F)F)c12	14	0.45
N#CCOc1ccc2c3c(c(=O)oc2c1)CCC3	12.8	1.25
Cc1cc(C(F)(F)F)c(C#N)c(SCC(=O)Nc2ccccc2[N+](=O)[O-])n1	0.025	.
O=C(NCc1ccc(F)cc1)c1cc(S(=O)(=O)N2CCOCC2)ccc1Sc1ccc(Br)cc1	-0.925	.
CCN(CC)CCC(=O)c1ccc(OC(C)C)cc1	.	-0.8
COc1ccc(/C=C2\N=C(c3ccc(Br)cc3)OC2=O)cc1OC(C)=O	0.265	.
O=C(Cn1c(=O)c2cccn2c2ccccc21)NCCc1ccc(Cl)cc1	0.33	-0.35
COc1ccccc1CNc1nc2ccccc2n1C(C)C	0.085	-0.65
CCOc1cc(C2Nc3ccc(C(=O)c4ccccc4)cc3NC3=C2C(=O)CC(C)(C)C3)ccc1O (configuration not stated)	-1.23	.
CCOc1cc(C(=O)OCC(=O)Nc2ccccc2Cl)ccc1OCC(=O)N1CCOCC1	.	0.3
Nc1cc(=O)nc(SCC(=O)NC2CCCCC2)n1-c1ccccc1	-0.11	-0.4
O=C(O)c1ccc2c(c1)CCCC2	.	0
COCc1nc2ccc(C)cc2c2c1C(=O)N(CCOc1ccc(OC)cc1)C2=O	0.26	.
CC(C)CNC(=O)CCn1cnc2onc(-c3ccc(F)cc3)c2c1=O	-0.57	1.2
COc1ccc(C2C(C(=O)Nc3cccc(OC)c3)CCC(=O)N2c2ccc(OC)cc2)cc1 (configuration not stated)	0.175	-0.35
COc1ccccc1C(=O)NCCC(=O)Nc1cc(C(N)=O)cc(C(N)=O)c1	.	-0.6
Cc1cc(C)c(CCOC(=O)NNC(=O)c2ccc(O)cc2)c(C)c1	-0.405	.
CC1=N/C(=C\c2ccccc2)C(=O)O1	-2.01	.
N=C1/C(=C\c2coc3ccccc3c2=O)C(=O)N=C2SC=NN12	0.08	-0.15

Whole records, looked up by structure. Order of screens: Ba CapD inh	AID504770
Cc1cc(C)c(CCOC(=O)NNC(=O)c2ccc(O)cc2)c(C)c1 across the screens: -0.405	.
COc1ccccc1CNc1nc2ccccc2n1C(C)C across the screens: 0.085	-0.65
COCc1nc2ccc(C)cc2c2c1C(=O)N(CCOc1ccc(OC)cc1)C2=O across the screens: 0.26	.
CCOc1cc(C(=O)OCC(=O)Nc2ccccc2Cl)ccc1OCC(=O)N1CCOCC1 across the screens: .	0.3
CCN(CC)CCC(=O)c1ccc(OC(C)C)cc1 across the screens: .	-0.8

Going on with the list.
SMILES	Ba CapD inh	AID504770
O=C(CCOC(Cc1cnccn1)c1ccc(C(F)(F)F)cc1)N1CCOCC1 (configuration not stated)	-0.255	.
COCCNC(=O)C1CCC(=O)N(C2CCCCC2)C1c1ccccc1 (configuration not stated)	-0.955	.
O=C(N/N=C/c1ccc2c(c1)OCO2)C1CC1C(=O)N/N=C/c1ccc2c(c1)OCO2 (configuration not stated)	0.685	-0.45
CC1CCN(CCCNC(=O)c2ccc(Cn3c(=S)[nH]c4ccc(Br)cc4c3=O)cc2)CC1	-0.57	.
O=C(NCc1csc(-c2ccccc2)n1)c1cc(F)cc2c1OCOC2	1.77	-0.2
CCOc1cc(C2C(C#N)=C(N)Oc3n[nH]c(C)c32)ccc1OCc1cccc(F)c1 (configuration not stated)	-0.465	.
COc1ccc(Cl)cc1S(=O)(=O)NC1CCCCC1	-0.485	-1.05
O=C(Nc1ccccc1)N1CCN2C(=O)c3ccccc3C12c1ccccc1 (configuration not stated)	-0.095	0.55
CC(=O)OC1CCC2(C)C(=CCC3C2CCC2(C)C(OC(=O)c4ccccc4)CCC32)C1 (configuration not stated)	0.34	.
Cn1c(N)c(C(=O)COC(=O)[C@@H]2CCCN2S(=O)(=O)c2ccc(Cl)cc2)c(=O)n(C)c1=O	.	0.6
CCOc1cccc(C(=O)Oc2cccc3ccc(C)nc23)c1	0.57	-0.5
CCN1CCN(C(=O)c2ccc(CS(=O)(=O)Cc3ccccc3F)o2)CC1	-1.1	-0.4
O=C(Cn1c(=O)sc2ccccc21)Nc1nncs1	0.81	0.6
COc1cc(OC)nc(-c2cccc(NC(=O)NS(=O)(=O)c3ccc(C)cc3)c2)n1	7.46	.
C=CCn1c(C(C)NC(=O)c2ccccc2Cl)n[nH]c1=S (configuration not stated)	.	-0.95
COc1ccc(N(CC(=O)N2c3ccccc3CC2C)S(=O)(=O)c2c(C)noc2C)cc1 (configuration not stated)	-0.065	0.5
CCOc1ccc(N(CC)S(=O)(=O)c2c(C)[nH]c(=O)[nH]c2=O)cc1	0.315	-0.3
O=C(COC(=O)Cn1nc(-c2ccccc2)oc1=O)Nc1ccc(F)cc1	.	-2
COc1ccc(CCNc2ccc(C(F)(F)F)cc2N)cc1OC	1.68	.
CC1CN(CCC(=O)Nc2ccc(Cl)c(C(F)(F)F)c2)CC(C)O1 (configuration not stated)	-0.255	1.15
COc1ccccc1C(=O)N(CCCN1C(=O)c2cccc3cccc(c23)C1=O)c1ccccc1OC	22.8	.
FC(F)(F)c1ccc(-c2nc(-c3ccccc3)ncc2-c2cnc3ccccc3n2)cn1	-0.415	.
O=C(CCc1nc(-c2cccs2)no1)Nc1c(C(=O)N2CCN(c3ncccn3)CC2)oc2ccccc12	1.94	0.75
O=C(c1ccc(Cl)cc1)N1CCCC1	.	0.95
CS(=O)(=O)N(Cc1nnc(-c2cccs2)o1)c1ccc(Cl)cc1F	.	0.9
Cc1cc(C)nc(SCC(=O)C(C)(C)C)n1	.	0.05
COc1ccc(C(=O)Cn2cc([N+](=O)[O-])nc2C)cc1	-1.14	.
COc1ccc(-c2nc(SCC(=O)N(C3CCCCC3)C3CCCCC3)n[nH]2)cc1	0.05	0.05
O=C(COc1ccc2c(c1)[nH]c1ccccc12)NC1CC1	.	0.1
CCOC(=O)c1c2c3c(cccc3[nH]c1=O)C(=O)c1ccccc1-2	0.1	0.05
Cn1c(N)c(C(=O)N/N=C/c2ccccc2)sc1=S	2.48	-0.85
O=C(Nc1ccc2nn(-c3cccc(Cl)c3)nc2c1)c1ccco1	22.8	-0.4
COC(=O)C1=C(C)NC2=C(C(=O)CC(C)(C)C2)C1c1ccc(OC(=O)c2ccc(Cl)cc2)c(OC)c1 (configuration not stated)	53.1	.
CCC(C)NC(=O)C(C)n1sc2ccccc2c1=O (configuration not stated)	0.265	0.35
COc1ccc(C2CC(C(F)(F)F)n3nc(C(=O)N4CCN(c5ccccc5)CC4)cc3N2)cc1OC (configuration not stated)	-0.295	.
CCOc1ccc2c(c1)C(C)=CC(C)(C)[N+]2(C)C	-0.145	-0.8
CCOC(=O)CSc1nnnn1-c1ccc2c(c1)OCO2	0.815	0.65
Cc1ccc(SCc2noc(-c3c(C)noc3C)n2)cc1	0.365	-0.1
CN(C)c1ccc(C2Nc3ccccc3NC3=C2C(=O)CCC3)cc1 (configuration not stated)	1.44	1.1
Cc1nc2c(C(=O)N3CCOCC3)c[nH]n2c(=O)c1Cc1ccc(F)cc1Cl	-0.865	0.15
COc1ccc(NC(=S)N/N=C/c2ccc(N3CCOCC3)o2)cc1	-1.09	0.8
O=C(Cn1cnc2sc(-c3ccccc3)cc2c1=O)N1CCCC1	0.35	-1.15
N#CC1=C([S-])N[C@@](O)(c2ccccc2)[C@H]([n+]2ccc3ccccc3c2)[C@H]1c1ccc(F)cc1	5.62	.
Fc1c(F)c(F)c(OC(c2ccccc2)C(F)(F)F)c(F)c1F (configuration not stated)	-0.56	-0.4
COc1ccccc1Oc1ccccc1[N+](=O)[O-]	0.075	.
Cc1nc(COC(=O)Cc2coc3cc4c(cc23)CCC4)cs1	.	0
O=C(NN1S(=O)(=O)c2ccccc2S1(=O)=O)c1cc(-c2ccccc2)n[nH]1	-2.65	.
Cc1ccc(S(=O)(=O)NCC2CCC(C(=O)O)CC2)cc1 (configuration not stated)	.	2.75
COC(=O)c1sc(SC)c(-c2ccn(S(=O)(=O)c3ccc(Cl)cc3)n2)c1C	-0.275	-0.05
CC1Cc2ccccc2CN1 (configuration not stated)	.	-0.35
CCOC(=O)c1[nH]c2ccc(OC)cc2c1N	36.1	.
CSc1c(CC(=O)NN)n(C)c2ccccc12	0.36	-0.75
O=C(/C=C\Nc1ccc(OC(F)(F)F)cc1)c1ccc(F)cc1	0.6	1
CC(C)C(Sc1nnc2sc3ccccc3n12)C(=O)NC(N)=O (configuration not stated)	.	-0.6
O=C1NC(=O)C(C(c2ccccc2)c2ccccc2)C(=O)N1	0.09	1.05
CCOC(=O)N1CCC(Nc2nc(-c3ccccc3)no2)CC1	0.77	0.1
COC(=O)c1ccc(COC(=O)c2ccc(S(=O)(=O)C(F)F)cc2)o1	.	-0.25
CC(C)(C)c1nnc2sc(SC/C(O)=C(\C#N)c3nc4ccccc4[nH]3)nn2c1=O	.	0.25
CC(C)CCOc1ccc(-c2nn(-c3ccccc3)cc2/C=c2\sc3nc(=O)c(Cc4ccccc4)nn3c2=O)cc1	-0.505	.
O=[N+]([O-])c1cc(C(F)(F)F)c(Sc2ccccn2)cc1Sc1ccccn1	0.58	.

Gathered by group, those above containing bromine
SMILES	Ba CapD inh	AID504770
Cc1cc(C)c2nc3s/c(=C/c4ccc(Br)c([N+](=O)[O-])c4)c(=O)n3c2c1	0.22	.
O=Nc1[nH]c(O)c2cc(Br)ccc12	.	-1
O=C(NCc1ccc(F)cc1)c1cc(S(=O)(=O)N2CCOCC2)ccc1Sc1ccc(Br)cc1	-0.925	.
COc1ccc(/C=C2\N=C(c3ccc(Br)cc3)OC2=O)cc1OC(C)=O	0.265	.
CC1CCN(CCCNC(=O)c2ccc(Cn3c(=S)[nH]c4ccc(Br)cc4c3=O)cc2)CC1	-0.57	.

(cont.)
SMILES	Ba CapD inh	AID504770
CCOc1ccc(NC(=O)CSc2nc3cc(C(=O)NCc4ccco4)ccc3c(=O)n2Cc2ccco2)cc1	-0.21	.
CCOC(=O)CSc1cn(Cc2ccc(Cl)cc2)c2ccccc12	0.83	-0.2
CCOC(=O)c1cccc(NCN2C(=O)c3ccccc3C2=O)c1	0.455	-0.95
CC(=O)n1nccc1-c1c(C)nc2ccccn12	57.6	-1.05
c1nc(NCCc2ccsc2)c2nc3n(c2n1)CCCCC3	0.26	0.15
CC(=O)NCc1ccc(C(=O)COC(=O)c2oc3ccc(Br)cc3c2C)o1	.	0
Cc1cc(C(=O)Nc2cccnc2)nn1C(C)(C)C	0.155	0.15
CN(C)C(CNC(=O)Nc1ccccc1)c1cccs1 (configuration not stated)	.	-0.85
CCN(CC)CCOc1ccccc1N	.	-0.1
CCCCN(C(=O)c1cnc2n(c1=O)CCS2)c1ccccc1	.	-0.65
CC1(C)NC(C(=O)O)Cc2c1[nH]c1ccccc21 (configuration not stated)	-0.245	.
CN(C)Cc1ccc(C(=O)Oc2ccc(C(C)(C)C)cc2)cc1	0.445	0.75
O=c1cc(CSc2ccc(Cl)cc2)[nH]c(=O)[nH]1	-0.29	.
COc1cccc(N=C=S)c1	.	-0.05
N#CC1=C(N)Oc2n[nH]c(-c3ccc(Br)cc3)c2C1c1cn[nH]c1-c1ccc(F)cc1 (configuration not stated)	-0.615	.
CN(C)c1ccc(-c2n[nH]c(=O)c3ccccc23)cc1[N+](=O)[O-]	0.3	.
Cc1cc(F)c(F)c(C(=O)n2ccnc2)c1Cl	0.245	1.4
COCCNC(=O)Cc1ccccc1OC	0.12	-0.7
CC1=NN(C(N)=S)C(=O)C1	-0.53	-0.15
NC(=O)c1cccc2c1C(=O)N(C1CCCCC1)C2	-0.14	-1.15
CCCCn1c2ccccc2c2nnc(SC(C)C(=O)OC)nc21 (configuration not stated)	-1.77	0.25
O=C(Nc1ccc(Cl)cc1)c1nn(-c2ccccc2)c(=O)c2ccccc12	-1.08	.
CCOC(=O)c1cc(-c2nnc(-c3cccc(C)c3)o2)c(C)nc1C	-0.5	0.65
CC(=O)n1cc(-c2c(O)c3ccccc3oc2=O)c2ccccc21	-1.19	-0.2
COc1cc(/C=N/NC(=O)c2ccc3nonc3c2)c([N+](=O)[O-])cc1OC	-0.495	.
CCCc1n[nH]c(=S)s1	.	-0.3
COc1ccc(F)cc1S(=O)(=O)NC(Cc1ccccc1)C(N)=O (configuration not stated)	-0.23	1.6
Cc1nn(CC(=O)c2ccc(Br)cc2)c(N)[n+]1C	0.17	-0.55
